A647 autofl = compound fluoresces in the A647 spectral region | Compound fluorescence, A647 channel (570/671 nm), Tris buffer | 59,000 tested, under 10 active | max dye-equivalent concentration, M; active means above 1 µM dye equivalent; inconclusive means 0.1 to 1 µM; inactive means 0.1 µM or less;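 further: values scaled relative to a standard on each plate; highest value over a series up to 38 µM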
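Buffer was dispensed, compounds and Alexa 647 standards were pin-transferred, and plates sat 15 min at room temperature. Intensity at 570/671 nm was then converted to dye-equivalent concentration using the plate's A647 standard curve.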
AID923 = qHTS Assay for Allosteric/Competitive Inhibitors of Caspase-1: Spectroscopic Profiling in AFC Spectral Region | compound fluorescence, AFC spectral region (405/520 nm); almost no hit is shown here | Potency, µM (series often up to 57.5 µM), inactives show at the top dose fluorescence increase, usual class: activators | hit rate 1.1% among 75,000 | AID 923, 2007; active means well fitted activation curve with a large enough effect; inconclusive means small, poorly fitted or top-dose-only effect;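 further: potency means the concentration at half of the fitted maximal effect; 0% is about no effect; scaled to a free AFC standard on each plate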
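Compound autofluorescence profiled at 405 nm ex/520 nm em during kinetic caspase 1 run (50 nM enzyme, 5 uM Ac-WEHD-AFC, HEPES pH 7.5, 10 mM DTT). Titration up to 57 uM; baseline from regression intercept, normalized to AFC standard curve.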
Resorufin autofl = resorufin region autofluorescence. Compound fluorescence, resorufin region 547/598 nm, buffer; active compounds read high. max dye-equivalent concentration, M. hit rate 0.04% among 59,000. AID 588; active = above 10 nM dye equivalent; inconclusive = 1 to 10 nM; inactive = 1 nM or less; a few of its hits are not listed in these tables; further: highest value over a series up to 38 µM
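Compounds in 100 mM Tris buffer, pH 8.0, incubated 15 min at room temperature, then read with 547 nm excitation and 598 nm emission filters. Fluorescence was converted to dye-equivalent concentration using an on-plate six-point resorufin standard curve.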
TSHR agonist = TSH receptor (human) agonism; P16473; HEK293-CNG-TSHR cells (CNG channel as cAMP sensor), membrane potential dye, cAMP; Potency, µM (titrated, usually from 57.1 µM), for inactives: top-dose activation, usual class: activators; hit rate 0.48% among 73,000; AID 926; active = well fitted activation curve of enough size with the parental cells flat; inconclusive = any curve in the parental cells; inactive = parental cells flat and receptor cells flat or falling; further: potency means the concentration at half of the fitted maximal effect; % of control where 0% means no effect; weak receptor curves with flat parental cells got no call and are not listed
Target sequence (P16473 whole entry, looked up): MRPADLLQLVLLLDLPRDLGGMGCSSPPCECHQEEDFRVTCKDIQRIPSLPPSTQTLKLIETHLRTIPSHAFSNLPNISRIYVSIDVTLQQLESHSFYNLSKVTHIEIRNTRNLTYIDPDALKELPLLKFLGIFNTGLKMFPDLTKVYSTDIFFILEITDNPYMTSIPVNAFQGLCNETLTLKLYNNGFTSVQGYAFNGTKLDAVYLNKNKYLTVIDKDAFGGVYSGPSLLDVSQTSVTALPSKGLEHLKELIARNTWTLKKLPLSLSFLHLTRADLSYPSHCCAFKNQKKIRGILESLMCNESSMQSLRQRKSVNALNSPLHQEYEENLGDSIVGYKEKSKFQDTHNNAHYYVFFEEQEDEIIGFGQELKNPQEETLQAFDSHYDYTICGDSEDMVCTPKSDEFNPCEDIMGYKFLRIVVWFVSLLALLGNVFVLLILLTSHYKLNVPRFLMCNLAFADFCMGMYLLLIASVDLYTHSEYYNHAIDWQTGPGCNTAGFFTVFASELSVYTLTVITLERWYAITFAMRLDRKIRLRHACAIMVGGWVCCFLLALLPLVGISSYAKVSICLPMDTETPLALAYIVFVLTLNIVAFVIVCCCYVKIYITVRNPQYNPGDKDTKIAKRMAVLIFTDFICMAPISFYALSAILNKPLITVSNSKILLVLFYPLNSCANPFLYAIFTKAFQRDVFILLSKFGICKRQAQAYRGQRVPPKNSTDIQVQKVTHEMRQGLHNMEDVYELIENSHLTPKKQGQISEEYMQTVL
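HEK 293 cells stably expressing TSHR and a cAMP-gated CNG channel; parental CNG-only cells as counterscreen. Cells preloaded 60 min with membrane potential dye plus 100 uM RO 20-1724, then compound 30 min; fluorescence read at 590 nm.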
A488 fluor = A488 region autofluorescence. max dye equivalency, M. hit rate 0.1% among 59,000. compound autofluorescence, A488 spectral region, dye equivalency; active compounds read high; active = above 10 nM dye equivalent; inconclusive = 1 to 10 nM; inactive = 1 nM or less; about half of its hits are not listed in these tables;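 further: highest value over a series up to 38 µM; compound alone in buffer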
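Compound autofluorescence was read in 100 mM Tris pH 8.0 after 15 min at room temperature, ex 480 nm/em 540 nm. Intensities were converted to A488 dye-equivalent concentration using an on-plate six-point A488 standard curve.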
Numbers without * were called inactive; i = inactive; ? = inconclusive; . = no result given; [ ] = remark or other dose. Not all compounds are listed; rates above refer to the full screens.

Value order – A647 autofl	AID923	Resorufin autofl	TSHR agonist	A488 fluor
- CC1=C(C(=O)OC(C)C)C(c2cccs2)N2C(=O)C(C)SC2=N1 (configuration not stated)
  2.2e-08	0.6%	i	20%	i
- O=C(c1ccco1)N(c1ccccn1)c1ccccn1
  .	0.6%	.	-4%	.
- C/C(=C\c1ccco1)C1Nc2cccc3cccc(c23)N1
  2e-08	0.6%	i	?	i
- COC(=O)C1=C(C)NC2=C(C(=O)CCC2)C1c1ccsc1 (configuration not stated)
  .	13%	.	-6%	.
- O=C(c1cnccn1)N1CCC[C@@]2(CCN(c3ccncc3)C2)C1
  1e-09	5.6%	i	3%	i
- Cc1cc(NS(=O)(=O)c2ccc(NC(=O)C(C)Oc3ccc4c(C)cc(=O)oc4c3)cc2)no1 (configuration not stated)
  8.3e-08	-0.2%	i	16%	i
- CC(C)c1ccc(CNc2ccc(N3CCOCC3)cc2)cc1
  1e-09	0.1%	i	-17%	i
- CC(=O)C1=C(C)NC(=O)NC1c1ccc(OC2CCCC2)cc1 (configuration not stated)
  2.4e-08	0.9%	i	10%	i
- O=C(NCCCNC(=O)c1ccccn1)c1ccccn1
  1e-09	0.7%	i	-1%	i
- O=C(NC1CCN(Cc2ccccc2)CC1)C1CCN(S(=O)(=O)c2cccc3cccnc23)CC1
  .	2.9%	.	2%	.
- Cc1cc(C)n2nc(SCC(=O)N(C)c3ccccc3)nc2n1
  2.5e-08	0.8%	i	0%	i
- CCC(C)NC(=O)C1CCN(c2nc(C)cc(C)n2)CC1 (configuration not stated)
  3.4e-08	0.1%	i	3%	i
- COc1cccc(-c2nc(CSCC(=O)N3CCc4ccccc43)c(C)o2)c1
  1e-09	-0.7%	i	?	i
- COc1ccc(-c2nc(C(N)=O)c3[nH]c(=O)n(-c4cccc(Cl)c4)c3n2)cc1OC
  1e-09	0.0%	i	.	i
- COc1ccc2[nH]c3c(=O)n(CCCCC(=O)N4CCCC4)c(=S)[nH]c3c2c1
  2.2e-08	0.8%	i	-9%	i
- CN1CCc2c(cc(O)c(O)c2Cl)[C@H](c2cccc(Cl)c2)C1
  4.2e-08	-0.1%	i	?	i
- CCOC(=O)Cc1csc(NC(=O)c2ccc(C)o2)n1
  5.6e-09	-0.3%	i	4%	i
- CC1=C(C(=O)NCc2ccccn2)C2(CCC(C)CC2)OC1=O (configuration not stated)
  .	0.9%	.	?	.
- COc1ccc(OC)c(NC(=O)C2CCN(S(C)(=O)=O)CC2)c1
  3.5e-08	0.1%	i	.	i
- COc1ccccc1N1CCN(C(c2cccs2)c2nnnn2C2CCCC2)CC1 (configuration not stated)
  1e-09	-0.7%	i	?	i
- O=C(c1cccc(F)c1)N1CCC2(CC1)CN(c1ccccc1)C2
  4e-09	0.7%	i	-3%	i
- CC(NS(C)(=O)=O)C(c1cccs1)N1CCN(c2ccccc2F)CC1 (configuration not stated)
  3.1e-09	-0.7%	i	4%	i
- Cc1ccc(S(=O)c2ccc(C)cc2)cc1
  .	-0.6%	.	6%	.
- COC(=O)Cn1cnc2sc(C)c(S(=O)(=O)N3CCC(C)CC3)c2c1=O
  1e-09	0.6%	i	1%	i
- COc1ccc2nc(SCc3cnc(C)nc3N)[nH]c2c1
  3.8e-09	0.4%	i	-8%	i
- CCOC(=O)CN1CC23C=CC(O2)C(C(=O)NCc2ccccc2OC)C3C1=O (configuration not stated)
  .	-2.0%	.	-1%	.
- CC(O)Cc1nsc(NC(=O)c2cccs2)n1 (configuration not stated)
  .	1.9%	.	-1%	.
- COc1ccc2nccc(SCC(=O)O)c2c1
  1.1e-08	0.0%[11.5 µM]	i	-2%[11.4 µM]	i
- Nc1ncnc2c1ncn2[C@@H]1O[C@H](CO)C[C@@H]1O
  .	-0.6%	.	4%	.
- N#Cc1cc(Oc2cccc3cccnc23)c(-n2nnc3ccccc32)cc1C#N
  4e-09	.	i	.	i

3 compounds already listed, ordered by heavy-atom count, low to high:
Value order – A647 autofl	AID923	Resorufin autofl	TSHR agonist	A488 fluor
- CC(O)Cc1nsc(NC(=O)c2cccs2)n1 (configuration not stated)
  .	1.9%	.	-1%	.
- Nc1ncnc2c1ncn2[C@@H]1O[C@H](CO)C[C@@H]1O
  .	-0.6%	.	4%	.
- N#Cc1cc(Oc2cccc3cccnc23)c(-n2nnc3ccccc32)cc1C#N
  4e-09	.	i	.	i

Additional compounds follow:
Value order – A647 autofl	AID923	Resorufin autofl	TSHR agonist	A488 fluor
- Cc1nc(=O)c(-c2ccccc2)c(C)n1-c1ccc(S(N)(=O)=O)cc1
  6.4e-08	.	i	.	i
- CSc1nc2c(ccc3ccccc32)o1
  1e-09	3.9%	i	9%	i
- O=C(c1ccc(S(=O)(=O)N2CCC(c3nc4ccccc4[nH]3)CC2)cc1)N1CCOCC1
  3e-09	1.8%	i	4%	i
- CCOc1ccc(-c2cc(CCCC(=O)N3CCN(c4ccc(OC)cc4)CC3)no2)cc1
  .	2.0%	.	2%	.
- COc1ccc(C(=O)N(Cc2nc(-c3ccc(C)cc3)no2)C2CCCCC2)cc1OC
  1e-09	-1.4%	i	?	i
- O=C(NCCCCC(NC(=O)C1CCCCC1)C(=O)O)c1ccccc1 (configuration not stated)
  1e-09	-1.2%	i	-1%	i
- O=C(CC(SCc1ccco1)c1ccc(O)cc1)c1cccs1 (configuration not stated)
  1e-09	0.7%	i	.	i
- CN(C(=O)COC(=O)c1ccc2c(c1)OCO2)C1CCS(=O)(=O)C1 (configuration not stated)
  8e-09	0.0%	i	-3%	i
- CCn1c(SCC(=O)N2CCCC2)nnc1-c1ccc(S(=O)(=O)N2CCCCCC2)cc1
  7.3e-09	0.6%	i	0%	i
- Cc1cc(C)n(-c2ccc(Cl)c(C(=O)Nc3ccc(-c4nnc5n4CCCCC5)cc3)n2)n1
  8.3e-09	0.6%	i	6%	i
- Cc1cc(=O)n2[nH]c(-c3ccc(F)cc3)nc2n1
  2.1e-09	0.0%	i	12%	i
- Cc1ccc2cc3cc(C(=O)NCc4ccco4)oc3nc2c1
  7.6e-09	0.7%	i	26%	i
- CCOc1ccccc1C1CC(c2ccc(F)cc2)Nc2nc(N)nn21 (configuration not stated)
  .	-1.1%	.	17%	.
- Cn1c(=O)cc(SCC(=O)NCCCN2CCOCC2)c2ccccc21
  3.1e-09	-0.5%	i	5%	i
- CCOC(=O)c1ccccc1NC(=O)c1cncc(Br)c1
  1e-09	-0.7%	i	?	i

3 compounds picked at random from those above:
Value order – A647 autofl	AID923	Resorufin autofl	TSHR agonist	A488 fluor
- CCn1c(SCC(=O)N2CCCC2)nnc1-c1ccc(S(=O)(=O)N2CCCCCC2)cc1
  7.3e-09	0.6%	i	0%	i
- Cc1cc(C)n(-c2ccc(Cl)c(C(=O)Nc3ccc(-c4nnc5n4CCCCC5)cc3)n2)n1
  8.3e-09	0.6%	i	6%	i
- O=C(CC(SCc1ccco1)c1ccc(O)cc1)c1cccs1 (configuration not stated)
  1e-09	0.7%	i	.	i

Later entries
Value order – A647 autofl	AID923	Resorufin autofl	TSHR agonist	A488 fluor
- COc1ccc(N2CC(O)=C(c3nc4ccccc4s3)C2=N)c(OC)c1
  1e-09	4.2%	i	2%	i
- O=C(Nc1ccncc1)c1cccc(F)c1
  .	-1.0%	.	3%	.
- CCCCOc1ccc(S(=O)(=O)NCc2csc(C)n2)cc1
  1e-09	-0.5%	i	?	i
- CCOC(=O)C1=C(C)OC(N)=C(C#N)C1c1c(C)nn(-c2ccccc2)c1Cl (configuration not stated)
  3.4e-08	4.8%	i	15%	i
- Cc1ccc(CN2C(=O)CSc3ccc(C(=O)NCCN4CCOCC4)cc32)cc1
  1e-09	-1.6%	i	10%	i
- Cc1ccc(N(C(=O)C2CCCC2)C2C=CS(=O)(=O)C2)cc1 (configuration not stated)
  4.2e-09	0.6%	i	-3%	i
- CCOCCOCN(C#N)c1nc(OC)nc(N(C)C)n1
  2.2e-08	-1.4%	i	2%	i
- COc1cc2c(cc1NC(=O)CN(C)Cc1nc3ccccc3c(=O)[nH]1)oc1ccccc12
  5.6e-09	0.9%	i	?	i
- O=C1C=C(NCCc2cc(Br)c(O)c(Br)c2)C(=O)c2ncccc21
  1e-09	5.1%[11.5 µM]	i	1%[11.4 µM]	i
- Cc1ccc(-c2nc(C3CCN(S(C)(=O)=O)CC3)no2)cc1
  5.5e-09	0.9%	i	1%	i
- CCOC(=O)C1CCN(C(=O)Cn2cc(C(=O)c3ccco3)c3ccccc32)CC1
  1.8e-08	-1.5%	i	1%	i
- O=c1c2cc3c(cc2[nH]c(=S)n1CCN1CCOCC1)OCO3
  7.2e-09	-1.2%	i	-1%	i
- CCc1nc2ccccc2c(C(=O)OC2CCOC2=O)c1C (configuration not stated)
  1e-09	-1.2%	i	8%	i
- Cc1ccc(C(=O)Nc2ccc(O)c(C(=O)O)c2)o1
  2.4e-08	-1.0%	i	.	i
- CS(=O)(=O)NC1CCN(Cc2ccccc2)CC1
  8.6e-09	-4.2%	i	-3%	i
- O=C(CSc1ccc2c(c1)OCCO2)NCC1CCCO1 (configuration not stated)
  3.8e-09	-0.1%	i	4%	i
- CCc1ccccc1OCC(=O)NC1CCCC1
  1e-09	-2.9%	i	?	i
- CCN(CC)S(=O)(=O)c1ccc(Nc2nc3ccccc3n3nnnc23)cc1
  2.7e-08	4.1%	i	.	i
- COc1ccc(C2C(C(=O)OCC(=O)N3CCCCC3)CCC(=O)N2c2ccc(OC)cc2)cc1 (configuration not stated)
  2.6e-08	0.0%	i	?	i
- O=S(=O)(NCC1CCCO1)c1ccc(S(=O)(=O)N2CCc3ccccc3C2)cc1 (configuration not stated)
  2.3e-08	-1.6%	i	-3%	i
- CCOC(=O)C1=C(CSc2nncn2C)NC(=O)NC1c1cc(OCC)ccc1OCC (configuration not stated)
  2.7e-08	0.1%	i	12%	i
- COc1ccc(NC(=O)N2CCCC3(CCN(S(=O)(=O)c4ccccc4)CC3)C2)cc1
  9.7e-09	4.1%	i	17%	i
- O=S(=O)(Nc1ccc(S(=O)(=O)N2CCOCC2)cc1)c1ccccc1
  .	4.0%	.	-5%	.
- Cc1ccc(S(=O)(=O)Nc2nsc(N)n2)cc1
  1e-09	-0.2%	i	4%	i
- CCOC(=O)N1CCC(NC(=O)CCc2c(C)nc3nc(C)nn3c2C)CC1
  2.5e-08	2.6%	i	2%	i
- COCCN(C(=O)CNC(=O)c1cccs1)C(C(=O)NC1CCCC1)c1cccs1 (configuration not stated)
  4.9e-09	-0.8%	i	6%	i
- Cc1noc(C)c1COC(=O)c1ccccc1NC(=O)Cc1ccccc1
  4.2e-08	-0.3%	i	?	i
- O=C(CSCC(=O)NCc1ccco1)NCc1ccco1
  1e-09	-0.1%	i	-2%	i
- CC1(C)CC(=O)C(CC(=O)Nc2ccc(S(N)(=O)=O)cc2)=C(O)C1
  2e-09	1.0%	i	-3%	i
- COc1ccc(Br)cc1/C=c1\sc2nc(-c3ccco3)nn2c1=O
  2.5e-08	0.1%	i	-1%[11.4 µM]	i
- Clc1ccccc1-c1nnn(Cc2ccc(-c3nn[nH]n3)cc2)n1
  3.7e-08	-0.8%	i	17%	i
- Cc1cc(C)n2c(SCc3cccs3)nnc2n1
  1e-09	-1.2%	i	24%	i
- CCC1CCCCN1Cc1nc2c(c(=O)n(C)c(=O)n2C)n1Cc1cccc2ccccc12 (configuration not stated)
  .	-5.5%	.	25%	.

Assay outcomes as filed in PubChem.
